# From PubChem
# Rango-impB inh: prevents formation of the Rango-importin beta complex; AID 540263; Rango CFP/YFP FRET sensor + importin beta, 45 min; Potency, µM (doses to about 92.2 µM), for inactives: at the highest dose inhibition of complex formation; Q14974; actives 0.031% (n = 340,000); active = rising FRET ratio curve, often small or poorly fitted; inconclusive = mostly compound fluorescence or quenching in the first reads; inactive = flat curves in all reads;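 note: potency is the fitted concentration of half-maximal effect; 0% = DMSO wells and 100% = buffer wells lacking importin beta; nearly all actives have a fitted effect of over 15% in size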
#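 FRET biosensor Rango (snurportin 1 IBB between N-terminal EYFP and C-terminal Cerulean), 50 nM in PBS/1 mM DTT/0.02% Tween-20/0.1% BSA, preincubated 5 min RT with compound; 0.125 microM importin beta added, 45 min RT, CFP/YFP FRET ratio read.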
# Rango dissoc inh: inhibitors of RanGTP-induced Rango-importin beta complex dissociation; AID 540253; O95149+P62826; Biochemical FRET Rango-importin beta, RanGTP-induced dissociation; Potency, µM (titrated, usually from 46.1 µM), without a hit: top-dose activity change, negative = inhibition; actives 0.071% (n = 340,000); active means falling FRET ratio curve, often poorly fitted, with flat reads before Ran was added; inconclusive means other falling curves, or compound fluorescence or quenching; inactive means flat or rising ratio curve;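 note: potency is the fitted concentration of half-maximal effect; % of control where 0% means no effect; nearly all actives have a fitted effect of over 45% in size; -100% = wells without RanGTP and RCC1; the record marks most hits as doubtful in a second field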
#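 Quantitative HTS using a FRET biosensor: 0.1 uM Rango, 0.25 uM importin beta, 0.6 uM Ran, 2 mM GTP, 0.2 uM RCC1 final, PBS with DTT, Tween-20 and BSA. Post-read taken 45 min after Ran addition.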
# miR-21 reporter: miR-21 reporter, rising signal | 340,000 tested, under 10 active | Potency, µM (series often up to 38.3 µM), inactives show at the highest dose reporter change, positive = more light | HeLa miR-21 FLuc reporter, luciferase, 48 h | AID 2288; active = well fitted rising curve with a large enough effect; inconclusive = small, poorly fitted or top-dose-only effect; inactive = no such curve, though single readings can be large or run the other way;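 note: % of control where 0% means no effect; miR-21 action dims this reporter so a rising signal means less miR-21 action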
#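 Compounds were titrated across several concentrations (up to approximately 40 uM) and incubated 48 hours with HeLa miR-21-FLuc reporter cells (miR-21 target sequence downstream of FLuc, endogenous miR-21). Readout was firefly luciferase luminescence after lytic detection reagent.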
# GLA inh pH 4.5: inhibitors of human alpha-galactosidase A at pH 4.5; P06280; 230,000 tested, under 10 active; purified enzyme, 4-MU-alpha-Gal fluorescence, pH 4.5; activity change, negative = inhibition, % at 105 µM; AID 1467; inconclusive = small, poorly fitted or top-dose-only inhibition, or a rising curve; inactive = flat fitted curve, though single readings scatter; no compound was filed as active;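 note: 0% = full activity with enzyme and -100% = basal without enzyme; dose as in the result columns while the protocol names 77 µM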
# Target sequence (P06280 whole entry, looked up): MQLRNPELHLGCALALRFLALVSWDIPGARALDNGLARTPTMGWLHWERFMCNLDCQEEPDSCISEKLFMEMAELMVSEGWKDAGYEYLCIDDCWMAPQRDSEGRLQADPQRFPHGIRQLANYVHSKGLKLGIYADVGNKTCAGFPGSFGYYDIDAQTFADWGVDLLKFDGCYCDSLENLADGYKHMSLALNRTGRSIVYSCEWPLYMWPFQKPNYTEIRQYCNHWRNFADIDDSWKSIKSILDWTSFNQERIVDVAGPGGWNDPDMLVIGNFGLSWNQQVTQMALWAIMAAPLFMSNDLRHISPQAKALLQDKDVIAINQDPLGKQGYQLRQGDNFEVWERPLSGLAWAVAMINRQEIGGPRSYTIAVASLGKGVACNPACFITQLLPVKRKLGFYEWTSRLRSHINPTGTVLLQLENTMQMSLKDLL
# An asterisk follows results filed as active; ? = inconclusive; · = no result given; & = joins results of further samples.
1	CCSc1ccccc1C(=O)Nc1cccnc1
2	CSCCC(NC(N)=O)C(=O)Nc1ccc2ccccc2c1 (stereo not given)
3	Nc1nonc1C(=O)N/N=C/c1ccncc1
4	C=CC[n+]1c(-c2ccc(Cl)cc2Cl)csc1Nc1c(C)n(C)n(-c2ccccc2)c1=O
5	COc1ccccc1NS(=O)(=O)c1cccc(NC(=O)c2nn(C)c(=O)c3ccccc23)c1
6	Cc1ccc(NC2=C(Cl)C(=O)OC2OC(=O)c2ccco2)cc1C (stereo not given)
7	O=C(O)CSc1c2c(nc3cc(C(=O)Nc4ccc(F)c(Cl)c4)ccc13)CCCC2
8	CN1c2ccccc2C(=O)/C(=C\Nc2ccc(F)cc2)S1(=O)=O
Assay by compound | 1 | 2 | 3 | 4 | 5 | 6 | 7 | 8
Rango-impB inh | 2.7% | -0.5% | 3.7% | 2.6% | 0.2% | 1.4% | 0.2% | -5.1%
Rango dissoc inh | 10% | -10% | ? | 5% | 4% | 11% | 29% | -26%
miR-21 reporter | -10% | -15% | -2% | 23% | · | 2% | 3% | 0%
GLA inh pH 4.5 | 4 | -6 | -5 | -6 | · | ? | · | 4

9	O=C(NCc1ccc2c(c1)CCO2)Nc1cccc(C(F)(F)F)c1
10	CC(=O)c1c(C)[nH]c(C(=O)Nc2cccc(S(=O)(=O)N3CCOCC3)c2)c1C
11	CC(C)(C)c1cc(C(=O)NN)n(Cc2ccc(F)cc2)n1
12	O=C(N=Nc1c(O)[nH]c2ccccc12)Nc1ccccc1
13	Cc1noc(NS(=O)(=O)c2ccc(NC(=O)COc3ccc(Cl)cc3Cl)cc2)c1C
14	Cc1nc2nc[nH]n2c(=O)c1CC(=O)O
15	CC(C)CNS(=O)(=O)c1ccc(S(=O)(=O)N2CCC(N3CCCCC3)CC2)cc1
16	O=C(O)/C=C/C(=O)N(Cc1ccc2c(c1)OCO2)C1CC(=O)N(CCc2ccccc2)C1=O (stereo not given)
Assay by compound | 9 | 10 | 11 | 12 | 13 | 14 | 15 | 16
Rango-impB inh | ? | -4.9% | -0.9% | -1.1% | 1.2% | -1.7% | -2.1% | 2.3%
Rango dissoc inh | 8% | 18% | 8% | -3% | -17% | 13% | 16% | 0%
miR-21 reporter | 3% | -4% | 0% | · | 12% | -5% | 0% | -1%
GLA inh pH 4.5 | -9 | 5 | -9 | · | -5 | 4 | · | -1

# An excerpt from above in order of the miR-21 reporter value, rising:
item | smiles | miR-21 reporter
1 | CCSc1ccccc1C(=O)Nc1cccnc1 | -10%
14 | Cc1nc2nc[nH]n2c(=O)c1CC(=O)O | -5%
10 | CC(=O)c1c(C)[nH]c(C(=O)Nc2cccc(S(=O)(=O)N3CCOCC3)c2)c1C | -4%
3 | Nc1nonc1C(=O)N/N=C/c1ccncc1 | -2%
8 | CN1c2ccccc2C(=O)/C(=C\Nc2ccc(F)cc2)S1(=O)=O | 0%
9 | O=C(NCc1ccc2c(c1)CCO2)Nc1cccc(C(F)(F)F)c1 | 3%
4 | C=CC[n+]1c(-c2ccc(Cl)cc2Cl)csc1Nc1c(C)n(C)n(-c2ccccc2)c1=O | 23%

# (next part)
17	CCN(C[C@H]1N[C@@](C)(C(=O)OC)[C@H]2C(=O)N(C)C(=O)[C@@H]12)C(=O)Nc1ccc(C)cc1
18	CCn1c(COc2ccccc2)nnc1SCC(=O)c1cccc([N+](=O)[O-])c1
19	CCOC(=O)c1csc(NC(=O)c2ccccc2)n1
20	O=C1/C(=C/c2ccc(F)cc2)SC(=S)N1Nc1ncc(C(F)(F)F)cc1Cl
21	CCOc1ccc(-c2cc(NC(=O)c3c(F)cccc3F)c(C(=O)O)s2)cc1
22	C/C(=N\NC(=O)C1CC1)c1ccccc1O
23	COc1cccc(-c2cc(C(=O)Nc3cccnc3Cl)no2)c1
24	COC(=O)c1ccccc1S(=O)(=O)NC(=O)c1ccccc1
Assay by compound | 17 | 18 | 19 | 20 | 21 | 22 | 23 | 24
Rango-impB inh | 0.0% | -3.9% | 9.7% | 0.5% | -0.2% | 4.2% | -0.3% | 0.6%
Rango dissoc inh | -4% | ? | 24% | 21% | 7% | 5% | -6% | -5%
miR-21 reporter | · | -5% | -18% | 2% | 0% | -12% | -1%&-18% | -6%
GLA inh pH 4.5 | · | 8 | 3 | 1 | · | 1 | · | -1

25	CCCCCCC1CC(CCc2nc(=S)[nH][nH]2)C(=O)O1 (stereo not given)
26	Cc1oc2c(C)c3oc(=O)c(CCC(=O)NCCCN4CCCC4=O)c(C)c3cc2c1C
27	Cc1ccc(NC(=O)c2cccc(OCc3c(C)noc3C)c2)cc1S(=O)(=O)Nc1ccccc1Cl
28	O=C(NC(Cc1ccccc1)C(=O)O)/C(=C/c1cccc([N+](=O)[O-])c1)NC(=O)c1cccc(Br)c1 (stereo not given)
29	CSc1sc(-c2n[nH]c(=S)n2C)c2c1C=CCC2
30	COc1ccc(N2C(=O)CC(N3CCC(c4nc5ccccc5[nH]4)CC3)C2=O)cc1 (stereo not given)
31	COC(CNC(=O)CCc1c(C)nc2c(c(C)nn2-c2ccc(C)cc2)c1C)OC
32	CN(C)N1C(N)=C(C#N)C(c2cccc(Cl)c2)C2=C1CCCC2=O (stereo not given)
Assay by compound | 25 | 26 | 27 | 28 | 29 | 30 | 31 | 32
Rango-impB inh | -1.1% | -1.6% | -1.8% | 1.1% | ? | -3.6% | -1.7% | -1.2%
Rango dissoc inh | -9% | -3% | 1% | 10% | -6% | ? | -8% | -1%
miR-21 reporter | 0% | -8% | 8% | -2% | 0% | 0% | 6% | -4%
GLA inh pH 4.5 | 7 | · | 3 | · | 4 | 9 | · | ·

33	O=C(CSc1nccc(=O)[nH]1)N1CCc2ccccc2C1
34	Cc1[nH]nc(N)c1-c1ccccc1
35	CCOC(=O)C(C)Oc1nc(Oc2ccccc2)nc(N(C)C)n1 (stereo not given)
36	COc1cccc(OCC(=O)NNC(=O)C(=O)Nc2ccc(OC)cc2OC)c1
37	Cc1cc(OCC(=O)Nc2ccc(S(=O)(=O)NC3=NCCCCC3)cc2)c(C(C)C)cc1Cl
38	CCN(CC(=O)Nc1ccc2c(c1)OCO2)S(=O)(=O)c1ccccc1
39	CCCNC(=O)C(Cc1ccccc1)NC(=O)c1ccccn1 (stereo not given)
40	O=C(NCc1ccccn1)c1ccc([N+](=O)[O-])cc1
Assay by compound | 33 | 34 | 35 | 36 | 37 | 38 | 39 | 40
Rango-impB inh | 9.3% | 3.7% | -2.8% | -5.3% | 3.2% | 3.3% | -1.0% | 1.1%
Rango dissoc inh | 4% | 5% | 2% | 13% | -13% | 2% | -1% | 16%
miR-21 reporter | 1% | 1% | 1% | -7% | -3% | -6% | · | -13%
GLA inh pH 4.5 | -4 | -3 | -3 | · | -17 | · | · | -3

41	COc1ccccc1NS(=O)(=O)c1ccc2[nH]c(=S)oc2c1
42	c1cncc(-c2nc(NCCCn3ccnc3)c3ccccc3n2)c1
43	COc1ccc(OCc2cc(C(=O)NC(C)c3csc(C)n3)no2)c(Cl)c1 (stereo not given)
44	CC1CCc2sc(C(=O)OCC(=O)NC(N)=O)cc2C1 (stereo not given)
45	Cc1cc(C(=O)Nc2cccc(S(=O)(=O)N3CCCCC3)c2)c2ccccc2n1
46	O=C(CC1C(=O)NCCN1Cc1cccc(F)c1F)NC1CCCCCC1 (stereo not given)
47	Cc1ccc(C2Oc3ccccc3C3=C2C(c2cccs2)n2ncnc2N3)cc1 (stereo not given)
48	O=C(NCCN=C1NS(=O)(=O)c2ccccc21)c1ccc2nccnc2c1
Assay by compound | 41 | 42 | 43 | 44 | 45 | 46 | 47 | 48
Rango-impB inh | 1.4% | 0.6% | -2.1% | 2.3% | 4.5% | -1.1% | ? | 0.6%
Rango dissoc inh | -8% | -12% | -1% | 2% | -7% | -8% | -43% | 5%
miR-21 reporter | · | 23% | -56% | -4% | 16% | 1% | 24% | 1%
GLA inh pH 4.5 | · | 0 | · | -6 | 6 | · | -9 | 5

# Another view of part of the listing above:
no. | Molecule | Rango-impB inh | Rango dissoc inh | miR-21 reporter | GLA inh pH 4.5
12 | O=C(N=Nc1c(O)[nH]c2ccccc12)Nc1ccccc1 | -1.1% | -3% | · | ·
13 | Cc1noc(NS(=O)(=O)c2ccc(NC(=O)COc3ccc(Cl)cc3Cl)cc2)c1C | 1.2% | -17% | 12% | -5
14 | Cc1nc2nc[nH]n2c(=O)c1CC(=O)O | -1.7% | 13% | -5% | 4

# Going on with the list:
49	Cn1c(NC(=O)/C=C/c2ccc(Cl)c(Cl)c2)cc(=O)n(C)c1=O
50	CCc1n[nH]c(=S)n1/N=C/c1ccc(N(C)c2ccccc2)cc1
51	CCOC(=O)Cc1csc(NC(=O)c2c(C)noc2C)n1
52	C=CCOC(=O)C1=C(C)NC(=S)C(C#N)(CC=C)C1c1ccccc1Cl (stereo not given)
53	O=C(CN1CCN(c2ccc(O)cc2)CC1)Nc1ccc(SC(F)F)cc1
54	CC[C@@H](C)[C@H](CN[C@H](CNC)[C@@H](C)O)NCCc1ccc(OC)cc1
55	COC(=O)C1=C(C)NC(=S)NC1c1ccc(-c2cc(Cl)ccc2Cl)o1 (stereo not given)
56	COc1nn(-c2nc(-c3ccccc3)cc(C(F)(F)F)n2)cc1[N+](=O)[O-]
Assay by compound | 49 | 50 | 51 | 52 | 53 | 54 | 55 | 56
Rango-impB inh | -2.2% | ? | -0.6% | -0.2% | 1.5% | 3.4% | -0.4% | 4.9%
Rango dissoc inh | -16% | -22% | 6% | 8% | 2% | -9% | -6% | -1%
miR-21 reporter | -13% | -2% | · | 4% | 23% | 0% | 17% | 0%
GLA inh pH 4.5 | -19 | -5 | · | -12 | -6 | · | 3 | 2

57	O=C(COC(=O)Cc1cccs1)NCc1ccc(F)cc1
58	COc1ccc(CN(C)C(=O)c2ccccc2OCc2c(C)noc2C)cc1OC
59	CC1(C)CC(=O)C(CC2=C(O)CC(C)(C)CC2=O)=C(O)C1
60	CSc1nc2cc(S(=O)(=O)N3CCCCC3)ccc2s1
61	CCCC(c1nnnn1CCc1ccccc1)N1CCN(C(=O)c2ccco2)CC1 (stereo not given)
62	CC(C)(C)c1ccc(O)c(N=Cc2cc(Br)ccc2O)c1
63	Cc1cccn2c(=O)c(/C=N/O)c(Nc3ccccc3F)nc12
64	CCCC(=O)NC(=S)Nc1cccc(C(C)=O)c1
Assay by compound | 57 | 58 | 59 | 60 | 61 | 62 | 63 | 64
Rango-impB inh | 2.7% | 4.2% | 3.0% | -3.9% | 1.5% | ? | -3.5% | 1.6%
Rango dissoc inh | 2% | 9% | -2% | 14% | 1% | -27% | -6% | 1%
miR-21 reporter | -1% | · | -4% | 0% | -7% | -11% | -2% | -21%
GLA inh pH 4.5 | · | · | 6 | 3 | -4 | 1 | -13 | -1

65	Cc1cc(C(=O)CSc2nnnn2C)c(C)n1-c1ccc2c(c1)OCCO2
66	COc1c(/C=N/NS(=O)(=O)c2ccc(C)cc2)c(CCN(C)C(C)=O)cc2c1OCO2
67	Cn1c(C(C)(O)C(O)c2ccccc2)nc2ccccc21 (stereo not given)
68	CC1(C)CCC[C@]2(C)C(CS(=O)c3ccccc3)=C(C=O)CC[C@@H]12 (stereo not given in full)
69	O=C(Oc1cccc(C(=S)N2CCOCC2)c1)c1cccc(Cl)c1
70	CCOC(=O)N1CCN(C(=O)c2ccc(CN(c3ccccc3)S(C)(=O)=O)cc2)CC1
71	Cc1ccc(-n2c(=O)c3cc4c(=O)n(-c5ccc(C)c(C)c5)c(=O)c4c(C(=O)c4ccc(C(=O)O)cc4)c3c2=O)cc1C
72	CC(=O)N1c2ccc(S(=O)(=O)N3CCCC3C(=O)Nc3cccc(F)c3)cc2CC1C (stereo not given)
Assay by compound | 65 | 66 | 67 | 68 | 69 | 70 | 71 | 72
Rango-impB inh | -0.7% | -1.9% | · | -1.3% | 1.3% | -6.1% | -1.3% | -0.8%
Rango dissoc inh | -8% | -18% | · | 6% | 17% | 2% | -5% | 30%
miR-21 reporter | -31% | -2% | -3% | · | -3% | -3% | 10% | 16%
GLA inh pH 4.5 | 1 | -15 | 6 | · | · | -2 | -12 | ·

# Not all compounds are listed; rates above refer to the full screens.
